Screens: PubChem BioAssay, National Center for Advancing Translational Sciences (NCATS)
PINK1 expr mod = A Quantitative High throughput Screen to Identify Chemical Modulators of PINK1 Expression. Potency, µM (titrated, usually from 76.6 µM), inactives show at the highest dose activation (PINK1 increase), actives largely listed as activators. 410,000 tested, 0.2% active. PINK1 immunofluorescence, high-content cytometry, 24 h; active = well fitted activation curve with a large enough effect; inconclusive = small, poorly fitted or top-dose-only effect; inactive = flat fitted curve, though single readings scatter; cell line not stated here;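 further: potency means the concentration at half of the fitted maximal effect; % of control where 0% means no effect; nearly all actives have a fitted effect of over 65% in size; a mitochondrial uncoupler was the plate control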
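Stable cell line treated 24 h with compounds at 5 concentrations (CCCP controls), then fixed and immunostained for PINK1 plus nuclear and cell stains; PINK1 immunofluorescence quantified by laser-scanning microplate cytometry.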
CtBP-E1A blk = qHTS Assay for Inhibitors of the CtBP/E1A Interaction; CtBP / adenovirus E1A interaction (AlphaScreen); AlphaScreen GST-E1A/His-CtBP binding, 1536-well; stronger effect = lower value; control for the full effect not named in the record; activity change, % (concentration not given with the values); 340,000 tested, 0.49% active; AID 651724, 2012; in the data active means activity change below about -65%; inconclusive means about -30% to -65%; inactive means above about -30%; further: on the % scale 0 is the no-effect control and ±100 the full control effect
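GST-E1A and His-tagged CtBP (125 nM each as 5X stock) were preincubated with pin-transferred compound for 2 h at 37 °C in the dark, then glutathione donor and nickel acceptor beads were added for 1 h before AlphaScreen reading.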
Sfp PPTase inh = qHTS Assay for Inhibitors of Bacillus subtilis Sfp phosphopantetheinyl transferase (PPTase); 4'-phosphopantetheinyl transferase ffp (Bacillus subtilis), Q9F4F7; Biochemical Sfp PPTase activity, qHTS; Potency, µM, for inactives: max response, negative = inhibition, actives largely listed as inhibitors; 310,000 tested, 3.5% active; AID 1490, 2009; active means well fitted inhibition curve with a large enough effect; inconclusive means small, poorly fitted or top-dose-only effect, or another doubt; inactive means no such curve, though single readings can be large or run the other way;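 further: the enzyme is Sfp with the accession as filed and its product quenches rhodamine fluorescence; potency means the concentration at half of the fitted maximal effect; 0% = enzyme reaction without inhibitor and -100% = no enzyme wells; top concentration of the series not given in the record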
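With Hepes-Na pH 7.6 buffer containing 10 mM MgCl2, Sfp (15 nM) modified BHQ-2-YbbR (12.5 uM) using rhodamine-CoA (5 uM). Two reads 30 minutes apart at 525/598 nm yielded each well's rate.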
TRPV1 potentiator = HTS Assay for Compounds that Act as Potentiators of the Vanilloid Receptor 1 | Transient receptor potential cation channel subfamily V member 1 (Homo sapiens), Q8NER1 | TRPV1-expressing cells, Fluo-8 calcium influx, capsaicin EC20 potentiation; host cell line not named in the record; control for the full effect not named in the record | potentiation, % at 8.33 µM | 320,000 tested, 0.02% active | AID 540277, 2011; active means potentiation above 80%; inconclusive means 30% to 80%; inactive means below 30%; further: 0% is about no effect
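Cells expressing TRPV1 were dye-loaded with Fluo-8 and read kinetically: 10 s baseline, 3 min after compound (agonist portion), then 2 min after EC20 capsaicin (allosteric enhancer portion). Calcium-bound dye fluorescence at 480/520 nm.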
Six1-Eya2 inh = qHTS Assay for Inhibitors of the Six1/Eya2 Interaction; AlphaScreen GST-Six1/His-Eya2 binding, biochemical; stronger effect = lower value; control for the full effect not named in the record; AID 651725, 2012; 360,000 tested, 0.56% active; Homeobox protein SIX1 (Homo sapiens) + Protein phosphatase EYA2 (Homo sapiens), …; activity change, % (test concentration not listed); in the data active = activity change below about -65%; inconclusive = about -30% to -65%; inactive = above about -30%; further: on the % scale 0 is the no-effect control and ±100 the full control effect; compound concentration not given in the record
Target sequence (O00167 whole entry, looked up): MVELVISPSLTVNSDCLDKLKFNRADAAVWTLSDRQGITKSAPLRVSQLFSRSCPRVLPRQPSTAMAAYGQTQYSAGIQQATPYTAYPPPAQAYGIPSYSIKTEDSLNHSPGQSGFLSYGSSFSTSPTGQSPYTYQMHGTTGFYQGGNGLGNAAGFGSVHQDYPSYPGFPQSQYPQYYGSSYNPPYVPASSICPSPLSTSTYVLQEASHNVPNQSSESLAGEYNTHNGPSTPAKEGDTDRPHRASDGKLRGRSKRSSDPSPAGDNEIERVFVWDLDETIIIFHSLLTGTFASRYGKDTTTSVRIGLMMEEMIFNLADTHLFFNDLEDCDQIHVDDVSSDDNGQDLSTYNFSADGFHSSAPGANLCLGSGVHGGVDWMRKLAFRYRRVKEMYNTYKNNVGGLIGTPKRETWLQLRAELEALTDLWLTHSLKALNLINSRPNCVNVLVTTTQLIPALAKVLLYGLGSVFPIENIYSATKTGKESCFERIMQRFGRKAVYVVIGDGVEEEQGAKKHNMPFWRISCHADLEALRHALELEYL
Target sequence (Q15475 whole entry, looked up): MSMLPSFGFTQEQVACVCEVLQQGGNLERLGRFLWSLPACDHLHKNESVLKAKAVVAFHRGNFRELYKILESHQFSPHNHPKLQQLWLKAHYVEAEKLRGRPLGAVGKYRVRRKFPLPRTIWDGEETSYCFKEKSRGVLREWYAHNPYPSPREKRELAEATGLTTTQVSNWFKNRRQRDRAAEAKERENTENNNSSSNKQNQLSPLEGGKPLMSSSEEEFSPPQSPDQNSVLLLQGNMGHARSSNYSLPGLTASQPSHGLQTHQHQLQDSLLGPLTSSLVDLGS
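AlphaScreen luminescence read after one hour at 37 °C in darkness. Pin-transferred compounds met GST-Six1 and His-Eya2 protein (5X stock 250 nM/500 nM) plus glutathione donor and Ni-chelate acceptor beads (5X, 50 ug/mL).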
D2 agonist = Beta-Arrestin HTS for Positive Allosteric Modulators of the Human D2 Dopamine Receptor: Agonists. DiscoveRx PathHunter D2 beta-arrestin, luminescence, 90 min; 100% = 57 uM dopamine signal. activation, % (no concentration beside the values). 360,000 tested, 0.084% active. AID 624465, 2012; in the data active = activation above about 40%; inconclusive = about 15% to 40%; inactive = below about 15%; further: compound concentration not given in the record; the text of the record calls up to 30% inactive
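DiscoveRx PathHunter D2 beta-arrestin cells (2,100/well) attached overnight, then compound-stimulated 90 min at 37 C in HBSS/10 mM HEPES/0.1% Tween-20 buffer; beta-galactosidase complementation read by luminescence after 1 h at ambient temperature. Dopamine 57 uM final (EC100) as control.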
D2 PAM = Beta-Arrestin HTS for Positive Allosteric Modulators of the Human D2 Dopamine Receptor: Potentiators. 360,000 tested, 0.23% active. D(2) dopamine receptor (Homo sapiens), P14416. DiscoveRx D2 beta-arrestin cells, luminescence, 90 min; 100% = 57 uM dopamine signal. AID 624464, 2012. potentiation, % (test concentration not listed); active = potentiation of 50% or more; inconclusive = 30% to 50%; inactive = 30% or less;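 further: compound concentration not given in the record; tested on top of an EC20 dose of dopamine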
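PathHunter beta-arrestin assay in DiscoveRx D2 cells. Compounds were added with an EC20 of dopamine (50 nM final) for 90 min at 37 deg C. Luminescence was read 1 h after detection reagent, with 57 uM dopamine as the EC100 control.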
Numbers without * were called inactive; ? = inconclusive; · = not tested or not shown; & = joins results of further samples; [ ] = another dose, or the depositor's remark.

SMILES | PINK1 expr mod | CtBP-E1A blk | Sfp PPTase inh | TRPV1 potentiator | Six1-Eya2 inh | D2 agonist | D2 PAM
Cc1cc(=O)n2nc(-c3ccccc3)sc2n1 | 0.6% | -1 | -11% | 13 | -3 | -3.7 | 1
O=C(NC1CCCC1)C1c2ccccc2C(=O)N1CCCN1CCOCC1 (stereo not given) | 2.2% | -2 | 8% | 7 | 6 | -5.8 | -7
Cc1cc(=O)[nH]c(N/N=C/c2ccccc2C(F)(F)F)n1 | 8.2% | -14 | -18% | 1 | 1 | 2.6 | 7
Cc1cc(Oc2ccc(=O)n(C)n2)nc(SCc2ccccc2)n1 | 5.2% | -12 | 0% | -12 | 5 | -3.4 | -8
CC(C)[C@H]1COCCS(=O)(=O)N1Cc1ccccc1 | 2.6% | · | · | · | 7 | -2.1 | -8
C[C@H](CO)N1C[C@H](C)[C@H](CN(C)C(=O)Nc2ccnc(N3CCOCC3)c2)OCc2cnnn2CCCC1=O | 1.1% | 3 | · | · | 2 | -2.7 | 6
O=C(Cc1ccc(NC(=O)C2CCN(C(=O)C3CCC3)CC2)cc1)Nc1cccc(C(=O)N2CCCC2)c1 | 0.0% | -2 | · | · | -10 | 1.5 | ·
CCC(=O)Nc1ccc(C(=O)NNC(=O)c2ccccc2)cc1 | 1.1% | -5 | 5% | 9 | 0 | -4.9 | -3
NC(=O)c1sc2cc(C(F)(F)F)cnc2c1-c1ccccc1 | -0.4% | -10 | -3% | 5 | 7 | -2.4 | -4
CCCOc1ccc(CSc2n[nH]c(C)n2)cc1 | -0.5% | -8 | 15% | -12 | -8 | 0.6 | 1
COC(=O)NC(NC(=S)Nc1cccc(C)c1)C(Cl)(Cl)Cl (stereo not given) | 0.5% | -17 | 2% | -2 | 5 | -1.6 | -23
CCOc1ccc(N(CC(=O)NCc2ccc(C)cc2)S(=O)(=O)c2c(C)[nH]c(=O)[nH]c2=O)cc1 | -1.3%&0.8% | 1 | 9% | -2 | -3 | -1.9 | -3
CCc1ccc(-c2csc(-c3c[nH]c4ccccc34)n2)cc1 | 7.1% | 0 | 6% | 2 | -2 | 2.4 | -8
COC(=O)[C@@]1(Cc2ccc(F)cc2)[C@H]2c3cc(C(=O)N(C)C)n(Cc4c(CO)[nH]cc(C)c4=O)c3C[C@H]2CN1C(=O)c1ccccc1 | -0.7% | 0 | -20%&5% | -3 | 2 | -9.5 | 0
COc1ccc(OC)c(-n2c(=S)[nH]c3cc(C(=O)N4CCN(c5ccccc5)CC4)ccc3c2=O)c1 | 2.4% | 0 | 18% | 4 | -6 | -5.6 | -5
CC(=O)N1CCN(c2ccc(NC(=O)c3ccccc3)cc2)CC1 | 0.9% | 14 | 17% | 11 | 1 | 0.4 | -21
COc1ccc(/C=C/c2nc(-c3ccccc3O)n(-c3ccccc3)n2)cc1 | 8.8% | -4 | 13% | ? | 12 | 4.8 | -7
Cc1ccc(S(=O)(=O)Nc2cccc(-c3cn4ccsc4n3)c2)cc1 | 5.7% | -17 | 5% | 22 | -24 | 2.6 | 10
CCC(C)NC(=O)CC(c1ccccc1)c1cc(C)ccc1O (stereo not given) | 2.0% | 5 | -1% | 1 | 6 | 12 | 7
CCOc1ccc(S(=O)(=O)N(C)C2CCCCC2)cc1 | 0.5% | 22 | 12% | -18 | 16 | -0.8 | 0
CCOC(=O)C1CCN(C(=O)CSCCSCC(=O)N2CCC(C(=O)OCC)CC2)CC1 | 1.1% | 7 | -30% | -11 | 18 | -2.8 | -3
CCc1ccc(N2CC(C(=O)Nc3ccc(C)c(S(=O)(=O)N4CCOCC4)c3)CC2=O)cc1 (stereo not given) | -2.4% | -12 | 16% | -3 | -1 | 5.1 | 3
Cc1cc(OCCN2CCCC2)ccc1C(C)C | 2.5% | -7 | -4% | -5 | 8 | -0.2 | -23
Nc1nonc1C(=O)NCCNS(=O)(=O)c1ccc(Br)cc1 | · | -8 | 19% | -10 | -3 | 0.4 | -1
CCCNCC1C(Oc2ccc(Cl)cc2Cl)C(=O)N1c1cccc(C)c1C (stereo not given) | ? | · | -51% | -3 | 0 | -5.3 | -9

The list goes on:
SMILES | PINK1 expr mod | CtBP-E1A blk | Sfp PPTase inh | TRPV1 potentiator | Six1-Eya2 inh | D2 agonist | D2 PAM
CC(=O)c1ccc(N2CCN(S(=O)(=O)c3cc(-c4cc(C)no4)ccc3C(C)C)CC2)cc1 | -0.4% | 2 | 9% | 5 | -8 | 0.9 | -7
Cc1c2c(nc3c(C(=O)NC4CC4)cnn13)CCCC2 | -0.3%[38.3 µM] | -1 | 17% | 2 | -2 | 0.0 | -13
Cc1nc(-c2ccc(S(=O)(=O)Nc3cccc(Cl)c3)cc2)co1 | 6.2% | 6 | 7% | 16 | 3 | ? | -33
CCOC(=O)c1cc2c(=O)n3ccccc3nc2n(Cc2ccco2)c1=NC(=O)c1cccc(OC)c1 | 0.9% | -2 | 28µM* | 5 | -8 | 3.8 | 6
CCOc1ccc(N(Cc2ccc(C(=O)O)cc2)S(=O)(=O)c2ccc(C)cc2)cc1 | 0.0% | -1 | 19% | 7 | 11 | -3.6 | -7
CC(=O)Nc1ccc(NC(=O)CSc2nnc(-c3ccc4c(c3)OCO4)o2)cc1 | 3.5% | 8 | · | · | 2 | -2.6 | -1
Cc1cc(NC(=O)c2ccccc2)n(-c2nc3ccccc3[nH]2)n1 | 1.5% | -1 | 6% | -21 | 4 | 1.9 | -13
CC(C)CCOCC(O)CCC(=O)NNC(=S)Nc1ccccc1 (stereo not given) | 1.9% | · | 5% | 1 | 1 | -6.0 | -12
COc1cccc(CN(C)C(=O)C23CC4CC(CC(C4)C2)C3)c1 | 0.4% | 4 | -7% | -22 | 11 | -1.9 | -8
CCc1nc2ccc(C(=O)NC3CCN(Cc4ccccc4)CC3)cn2c1N(C)Cc1cc2ccccc2s1 | -1.2% | -19 | · | · | -19 | -5.0 | -13
O=C(Nc1ccc([N+](=O)[O-])cc1)Nc1ccon1 | 0.7% | -6 | 0% | -1 | -8 | -0.3 | -7
NNC(=O)CNc1cccc(Br)c1 | 2.6% | · | 12% | -18 | 4 | -3.7 | -22
CCN(c1ccccc1)S(=O)(=O)c1cc2c3c(c1)C(C)C(=O)N3CCC2 (stereo not given) | 1.5% | 3 | 7% | -2 | 1 | 2.1 | 8
Cc1ccccc1NC(=O)Cn1c(=O)n(C)c2ccccc21 | -0.8% | 14 | 17% | 9 | 1 | 0.0 | 3
O=C(CSc1ccc([N+](=O)[O-])cc1)Nc1cccc(S(=O)(=O)Nc2ccccc2F)c1 | 1.2% | -6 | 45µM* | 23 | -10 | -0.4 | -3
COc1ccc(Cc2c(O)nc(SCC(=O)c3ccc(OC)cc3)[nH]c2=O)cc1 | 4.0% | · | 31% | -14 | -86* | 4.1 | -2
Cc1cccc(Cc2nnc(CCC(=O)N(C)C3CCOC3)o2)c1 (stereo not given) | 0.3% | 11 | 8% | -1 | -5 | 5.1 | 2
O=C(Nc1ccccc1C(=O)O)c1cccc(NC(=O)c2ccco2)c1 | 0.0% | -16 | 20% | -23 | -18 | 8.8 | 22
Cc1ccc(-c2csc(N)n2)cc1 | 3.2% | -8 | · | · | -3 | 12 | -11
COc1ccc(C2=NN(CCC(=O)NCc3ccc4c(c3)OCO4)C(=O)CC2)cc1 | -1.3% | -6 | 7% | -8 | 2 | 2.4 | -4
COc1ccccc1NC(=S)N1CCN(C(=O)C2CCCO2)CC1 (stereo not given) | 2.7% | · | 22% | -2 | 5 | 0.4 | -3
CC(C)CCNC(=O)CN(Cc1ccc2c(c1)OCO2)C(=O)CCC(=O)Nc1ccccn1 | 1.6% | 7 | 4% | 11 | 1 | -3.4 | -4
Fc1cccc(C2CC(c3cccc(Br)c3)Nc3nnnn32)c1 (stereo not given) | 1.8% | 0 | -5% | 3 | -2 | -8.0 | -7
O=C(C1=C(O)C(=O)N(CCN2CCOCC2)C1c1ccccc1)c1cccs1 (stereo not given) | -2.5% | -9 | · | · | 6 | -1.3 | -10
CCOC(=O)c1ccc(NC(=O)CNC(=O)c2ccccc2)cc1 | 10%[38.3 µM] | 0 | -2% | -5 | -1 | -1.7 | -7

Next section:
SMILES | PINK1 expr mod | CtBP-E1A blk | Sfp PPTase inh | TRPV1 potentiator | Six1-Eya2 inh | D2 agonist | D2 PAM
CCOC(=O)NC1(C(F)(F)F)N=C(c2ccccc2)NC1=O (stereo not given) | 2.6% | 33 | 11% | -15 | 20 | -2.3 | -10
Cc1ccc(NC(=O)Cn2c(CCC(=O)O)ccc2-c2cccs2)cc1 | -0.8% | -1 | 25µM* | -9 | -2 | -1.6 | 6
Cc1ccc(C(O)C(=O)c2ccco2)cc1 (stereo not given) | 0.6% | 2 | · | 8 | 8 | -2.9 | -7
Cc1ccc(N2CCN(/N=C/c3c(C)nn(-c4ccccc4)c3Cl)CC2)cc1 | 0.2% | · | 8% | 7 | -9 | -0.1 | -1
Cc1cc(C)n(C(C)CNS(=O)(=O)c2ccc(Cl)cc2)n1 (stereo not given) | 0.0% | -4 | -8% | 3 | -19 | -0.8 | -5
Cc1[nH]nc2oc(=O)c(CCO)c(C)c12 | 3.3%[38.3 µM] | 6 | 22% | 2 | -1 | -3.0 | -6
COc1ccc(NCc2nnc(SCC(=O)Nc3cccc(C)c3)o2)cc1 | -0.9% | -7 | 6% | 1 | -6 | -1.7 | 6

In a second layout: entries from further up.
SMILES,PINK1 expr mod,CtBP-E1A blk,Sfp PPTase inh,TRPV1 potentiator,Six1-Eya2 inh,D2 agonist,D2 PAM
Cc1cc(C)n(C(C)CNS(=O)(=O)c2ccc(Cl)cc2)n1 (stereo not given),0.0%,-4,-8%,3,-19,-0.8,-5
COc1ccc(NCc2nnc(SCC(=O)Nc3cccc(C)c3)o2)cc1,-0.9%,-7,6%,1,-6,-1.7,6
Cc1ccc(N2CCN(/N=C/c3c(C)nn(-c4ccccc4)c3Cl)CC2)cc1,0.2%,·,8%,7,-9,-0.1,-1
